# total CFTR – compounds raising F508del-CFTR protein level – cell-based, HeLa F508del-CFTR, immunofluorescence, viability, primary screen (AID 1224863). HeLa F508del-CFTR, immunofluorescence total CFTR, 24 h; by the record results were divided by relative cell number; some inactives read as strong as hits. 10,000 compounds, 0.1% hits. calls, or highest fold increase where a dose series was run; in the data nearly all actives have a first-pass fold increase above 1.5; a few of its hits are not listed in these tables;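 note: total CFTR protein by anti-CFTR immunofluorescence in fixed cells; first pass at 25 µM or 10 µg/mL by library and series up to twice that; 1 = untreated cells; first-pass hits also needed half or more of the cells alive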
# total CFTR fold 25 µM – also measured in total CFTR; calls as there; fold increase; measured here: primary screen single dose 25 uM; library dosed in µM
# total CFTR viability 25 µM – second read-out of total CFTR, no call of its own (marks repeat the call); viability, %; measured here: primary viability 25 uM; library dosed in µM;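 0% = killed and 100% = untreated cells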
# An asterisk follows results filed as active; i = inactive; & = joins results of further samples. The list is partial; the hit share may differ from the screen's.
# Start of the listing, in advance:
SMILES	total CFTR	total CFTR fold 25 µM	total CFTR viability 25 µM
CN(C)CCOC(=O)C(c1ccccc1)C1(O)CCCC1 (stereo unspecified)	i	1	105
CCCN(CCC)C(=O)C(CCC(=O)O)NC(=O)c1ccccc1 (stereo unspecified)	i	1	95

# The listing (from the top)
SMILES	total CFTR	total CFTR fold 25 µM	total CFTR viability 25 µM
CN(C)CCOC(=O)C(c1ccccc1)C1(O)CCCC1 (stereo unspecified)	i	1	105
CCCN(CCC)C(=O)C(CCC(=O)O)NC(=O)c1ccccc1 (stereo unspecified)	i	1	95
CN=C(NC#N)Nc1ccc(C2=NNC(=O)CC2C)cc1 (stereo unspecified)	i	1	92
CN1CCN(c2cc3c(cc2F)c(=O)c(C(=O)O)cn3-c2ccc(F)cc2)CC1	i	0.81	67
C[C@@H]1CC(=O)NN=C1c1ccc(NN=C(C#N)C#N)cc1	i	1.1	94
OCC(O)CN1CCN(c2ccccc2)CC1 (stereo unspecified)	i	0.97	93
C#C[C@]1(OC(C)=O)CCC2C3CCC4=C/C(=N/O)CCC4C3CC[C@@]21CC (stereo partly specified)	i	0.88	73
CCCCOC(=O)c1ccc(N)cc1	i	1.1	104
Cc1ccc(Nc2c(F)cccc2Cl)c(CC(=O)O)c1	i	1	94
CN(C)CCC[C@@]1(c2ccc(F)cc2)OCc2cc(C#N)ccc21	i	1&1	87&98

# Compound profiles, as listed above. Values in the order: total CFTR	total CFTR fold 25 µM	total CFTR viability 25 µM
# CN=C(NC#N)Nc1ccc(C2=NNC(=O)CC2C)cc1 (stereo unspecified) in the list: i	1	92
# OCC(O)CN1CCN(c2ccccc2)CC1 (stereo unspecified) in the list: i	0.97	93

# (further entries)
SMILES	total CFTR	total CFTR fold 25 µM	total CFTR viability 25 µM
Cc1nc2c([nH]1)c(=O)n(C)c(=O)n2Cc1ccco1	i	0.95	106
O=C(O)CCCCCCCC(=O)O	i	0.99	97
CN1CCN(c2c(F)cc3c(=O)c(C(=O)O)cn4c3c2SCC4)CC1	i	0.98&0.99	89&95
CN1CCC(=C2c3ccccc3CC(=O)c3sccc32)CC1	i	1&0.96	88&113
Cc1oncc1C(=O)Nc1ccc(C(F)(F)F)cc1	i	1.1&0.93&1.1	108&100&86
Cc1ccc(C(=O)C(C)CN2CCCCC2)cc1 (stereo unspecified)	i	0.96	103
CCCCC(=O)O[C@]1(C(=O)CO)[C@@H](C)C[C@H]2[C@@H]3CCC4=CC(=O)C=C[C@]4(C)[C@@]3(F)[C@@H](O)C[C@@]21C	i	1.1	83
C#C[C@]1(O)CC[C@H]2[C@@H]3CCC4=CC(=O)CC[C@@H]4[C@H]3CC[C@@]21CC	i	0.99&0.92	93&91
CC(C)(CO)[C@@H](O)C(=O)NCCCO	i	1.1	113
CC1CCc2c(N3CCC(O)CC3)c(F)cc3c(=O)c(C(=O)O)cn1c23 (stereo unspecified)	i	0.93&0.9	100&115

# Next section; it opens with the two that closed the last part.
SMILES	total CFTR	total CFTR fold 25 µM	total CFTR viability 25 µM
CC(C)(CO)[C@@H](O)C(=O)NCCCO	i	1.1	113
CC1CCc2c(N3CCC(O)CC3)c(F)cc3c(=O)c(C(=O)O)cn1c23 (stereo unspecified)	i	0.93&0.9	100&115
O=C(c1ccccc1)c1ccc2n1CCC2C(=O)O (stereo unspecified)	i	0.96&0.93	91&96
CCC(Cc1c(I)cc(I)c(N)c1I)C(=O)O (stereo unspecified)	i	1.3	111
NC(=O)NC(=O)Cc1ccccc1	i	1.1	87
COc1cc(C(=O)NCCCCCC(=O)O)cc(OC)c1OC	i	1.1	105
CCC(C)n1ncn(-c2ccc(N3CCN(c4ccc(OC[C@H]5CO[C@](Cn6cncn6)(c6ccc(Cl)cc6Cl)O5)cc4)CC3)cc2)c1=O (stereo partly specified)	i	0.91&1.1	83&84
Cc1ccsc1/C=C/C1=NCCCN1C	i	1.1	97
NC(=O)c1ccc([N+](=O)[O-])cc1Cl	i	0.86	90
CN1C(=O)CC(C)(c2ccccc2)C1=O (stereo unspecified)	i	0.96	103
CCN(CC)CCOC(=O)C(c1ccccc1)c1ccccc1	i	1.1	111
CCN(CC)S(=O)(=O)c1ccc(C(=O)O)cc1	i	0.96	99
CN(C)C(=N)N=C(N)N	i	1.1&0.96&1	108&99&92
OCCOCCN1CCN(C(c2ccccc2)c2ccc(Cl)cc2)CC1 (stereo unspecified)	i	1.2	72
CC(=O)O[C@@]12CO[C@@H]1C[C@H](O)[C@@]1(C)C(=O)[C@H](O)C3=C(C)[C@@H](OC(=O)[C@H](O)[C@@H](NC(=O)OC(C)(C)C)c4ccccc4)C[C@@](O)([C@@H](OC(=O)c4ccccc4)[C@H]21)C3(C)C	i	0.6	67
CN1CCCN=C1/C=C/c1cccc(O)c1	i	1.1	91
CC(C)(C(=O)c1cccnc1)c1cccnc1	i	1.1	87
O=C1CCc2cc(OCCCCc3nnnn3C3CCCCC3)ccc2N1	i	1.1&0.97	86&88
CN(CCOc1ccc(NS(C)(=O)=O)cc1)CCc1ccc(NS(C)(=O)=O)cc1	i	0.96	84
COC(=O)Nc1nc2ccc(S(=O)c3ccccc3)cc2[nH]1 (stereo unspecified)	i	0.71&0.72	72&74
CCCc1cc(C(N)=S)ccn1	i	1.1&1.1	86&93

# A draw from above in order of count of non-hydrogen atoms, lowest first.
SMILES	total CFTR	total CFTR fold 25 µM	total CFTR viability 25 µM
CN(C)C(=N)N=C(N)N	i	1.1&0.96&1	108&99&92
CCCc1cc(C(N)=S)ccn1	i	1.1&1.1	86&93
CN1CCCN=C1/C=C/c1cccc(O)c1	i	1.1	91
COC(=O)Nc1nc2ccc(S(=O)c3ccccc3)cc2[nH]1 (stereo unspecified)	i	0.71&0.72	72&74
OCCOCCN1CCN(C(c2ccccc2)c2ccc(Cl)cc2)CC1 (stereo unspecified)	i	1.2	72
O=C1CCc2cc(OCCCCc3nnnn3C3CCCCC3)ccc2N1	i	1.1&0.97	86&88
